Vaccinia stage: blocks a specific stage of Vaccinia orthopoxvirus infection, primary screen, cell-based, single point | Vaccinia-infected cells, mCherry/Venus stage reporter fluorescence; stronger effect = lower value; some inactives read as strong as hits | activity change (mCherry), % (concentration not given with the values) | hit rate 0.01% among 89,000 | AID 1053133, 2014;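 active = mCherry past -33% and 40 or more points under the early reporter, replicates agreeing; inconclusive = past -33% without that gap or agreement; tested in A549 cells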;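 also: scaled between vehicle wells and reference inhibitor wells; 23 nL library stock went into each well; one replicate is shown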
Vaccinia stage Venus: recorded beside Vaccinia stage, whose call it bears; activity change (Venus), %; measured here: Venus reporter, other viral stage;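 negative = less Venus signal; first of two replicates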
The depositor's hits bear a star; ? = inconclusive; · = not tested or not shown. This is a subset, so the mix of outcomes need not match the whole.

SMILES	Vaccinia stage	Vaccinia stage Venus
C[C@@H]1CN([C@H](C)CO)C(=O)c2cccc(N(C)C)c2O[C@@H]1CN(C)Cc1ccc(Oc2ccccc2)cc1	-16.4	-5.7
COc1cccc(-c2cnc3c(c2)C(=O)N([C@H](C)CO)C[C@H](C)[C@H](CN(C)Cc2cccc(C(F)(F)F)c2)O3)c1	-23.8	-15.7
CO[C@@H]1CN(C)C(=O)c2ccc(NC(=O)c3ccc(F)cc3)cc2OC[C@H](C)NC[C@@H]1C	-2.4	1.7
O=C(Cc1ccccn1)N1CCCCN2[C@H](CO)[C@@H](c3ccc(C#Cc4ccccc4)cc3)[C@H]2C1	-15.9	-12.3
Cc1ccc(S(=O)(=O)N(C)C[C@H]2Oc3c(NC(=O)c4ccncc4)cccc3C(=O)N([C@@H](C)CO)C[C@@H]2C)cc1	7.7	6.5
COc1cccc(NC(=O)N(C)C[C@H]2OCc3ccccc3-c3ccccc3C(=O)N([C@H](C)CO)C[C@H]2C)c1	28.2	0.0
O=C(C[C@@H]1CC[C@@H]2[C@H](COC[C@H](O)CN2Cc2nccs2)O1)NCc1ccc(F)cc1	10.2	4.9
C[C@@H]1CN([C@@H](C)CO)C(=O)c2cc(NC(=O)Cc3ccccc3)ccc2O[C@H]1CN(C)C(=O)NC1CCCCC1	-2.7	0.5
CN1C(=O)c2cc(NC(=O)C3CCCC3)ccc2OC[C@@H]2O[C@@H](CC(=O)NCC3CC3)CC[C@H]21	-7.2	-2.6
CS(=O)(=O)N1[C@@H]2Cn3c(cccc3=O)[C@H]1[C@@H](C(=O)NCc1ccc(F)cc1)[C@@H]2CO	-2.1	-4.9
C[C@H](CO)N1C[C@H](C)[C@H](CN(C)C(=O)c2cccnc2)Oc2cc(-c3cccc(C#N)c3)ccc2S1(=O)=O	4.8	7.8
CN1CCN(C(=O)C[C@@H]2CC[C@@H]3[C@H](COC[C@@H](O)CN3S(=O)(=O)c3cccc(Cl)c3)O2)CC1	11.1	7.6
CO[C@@H]1CN(C)C(=O)c2ccc(NS(=O)(=O)c3cn(C)cn3)cc2OC[C@H](C)N(C)C[C@@H]1C	21.3	12.8
Cc1noc(C)c1NC(=O)Nc1ccc2c(c1)C(=O)N([C@@H](C)CO)C[C@@H](C)[C@H](CN(C)CC1CC1)OCCCC[C@@H](C)O2	25.3	5.5
CCCNC(=O)[C@@]1(C)c2ccccc2C(=O)N(Cc2ccc(OC(F)(F)F)cc2)[C@H]1c1ccc(CO)cc1	-19.9	-22.6
CCCNC(=O)N1C[C@@H](C)[C@H](OC)CN(C)C(=O)c2ccc(NS(=O)(=O)CC(F)(F)F)cc2OC[C@H]1C	9.8	5.8
O=C(c1cccc(F)c1)N1C[C@@H]2[C@H](c3ccccc31)[C@@H](CO)N2C(=O)C1CC1	4.9	18.2
COc1ccc(S(=O)(=O)N(C)C[C@H]2Oc3ncc(C#CC4(O)CCCC4)cc3C(=O)N([C@H](C)CO)C[C@@H]2C)cc1	?	·
C[C@@H]1CCCCO[C@H](CN(C)Cc2ccncc2)[C@H](C)CN([C@H](C)CO)C(=O)c2cc(NC(=O)C3CCCCC3)ccc2O1	-4.7	-0.4
COc1ccc(NC(=O)N[C@@H]2CC[C@@H](CC(=O)NC3CCCCC3)O[C@H]2CO)cc1	1.1	7.8
COc1ccc(NC(=O)Nc2ccc3c(c2)C(=O)N([C@H](C)CO)C[C@@H](C)[C@@H](CN(C)S(=O)(=O)c2ccccc2)O3)cc1	-17.1	-16.5
CO[C@H](CN(C)Cc1cc(F)ccc1F)[C@H](C)CN(C(=O)Nc1ccc(C(F)(F)F)cc1)[C@@H](C)CO	-19.2	-17.6
CN(C[C@@H]1N[C@@H](CO)[C@@H]1c1ccc(-c2cccc(F)c2)cc1)S(C)(=O)=O	-5.6	2.2
Cc1ccccc1S(=O)(=O)N(C)C[C@@H]1OCc2cnnn2CCCC(=O)N([C@H](C)CO)C[C@H]1C	26.9	9.3
COc1ccccc1C#Cc1cnc2c(c1)C(=O)N([C@@H](C)CO)C[C@H](C)[C@H](CN(C)C(=O)CC1CC1)O2	8.2	10.5
CN1[C@H](CO)[C@H]2c3ccccc3N(C(=O)Nc3cc(F)ccc3F)C[C@H]21	2.1	3.5
C[C@@H]1CN([C@@H](C)CO)C(=O)c2cccc(NC(=O)C3CCCCC3)c2O[C@H]1CN(C)C(=O)Nc1ccc2c(c1)OCO2	16.2	5.9
COc1ccc(NC(=O)N(C)C[C@H]2Oc3ccc(NC(=O)Nc4ccccc4)cc3C(=O)N([C@H](C)CO)C[C@H]2C)cc1	10.4	18.1
CC(C)NC(=O)N(C)C[C@H]1Oc2cc(C#Cc3ccc(F)cc3)ccc2S(=O)(=O)N([C@@H](C)CO)C[C@H]1C	?	·
CCCC#Cc1ccc([C@H]2[C@H]3CN(C(=O)Nc4ccccc4)CC(=O)N3[C@H]2CO)cc1	-10.6	-12.5
C[C@@H]1CN([C@H](C)CO)C(=O)c2cc(NS(=O)(=O)c3ccc(F)cc3)ccc2O[C@@H]1CN(C)CC1CC1	2.5	-13.5
C[C@@H]1CN([C@@H](C)CO)C(=O)c2c(c3ccccc3n2C)-c2ccccc2CO[C@H]1CN(C)S(=O)(=O)c1cn(C)cn1	11.7	2.4
Cc1ccc(S(=O)(=O)Nc2cccc3c2O[C@H](CN(C)CC2CC2)[C@@H](C)CN([C@@H](C)CO)C3=O)cc1	6.7	24.0
COc1cccc(-c2ccc3c(c2)[C@@H]2[C@@H](CCN2C(=O)c2ccc(F)cc2)[C@@H](CO)N3)c1	?	·
O=C(c1ccccn1)N1C[C@H]2[C@@H](c3ccccc31)[C@H](CO)N2C(=O)C1CCOCC1	11.2	7.7
C[C@H]1CN([C@@H](C)CO)C(=O)c2cc(C#CC3CCCCC3)cnc2O[C@@H]1CN(C)Cc1cncnc1	8.8	6.0
C[C@H]1CN([C@@H](C)CO)C(=O)c2cccc(NS(=O)(=O)c3ccc(F)cc3)c2O[C@H]1CN(C)Cc1ccccc1	8.3	3.6
COC(=O)[C@H]1N[C@H]2c3ccc(C4=CCCCC4)c(=O)n3C[C@H]2[C@@H]1CO	12.3	15.8
COc1ccc(S(=O)(=O)N(C)C[C@@H]2OCCCC[C@H](C)Oc3ccc(NS(=O)(=O)c4ccc(Cl)cc4)cc3C(=O)N([C@@H](C)CO)C[C@@H]2C)cc1	-34.7	-31.1
CN1c2ccc(-c3ccccc3)cc2[C@H]2[C@H](CCN2C(=O)Cc2ccccc2)[C@H]1CO	?	·
CC(C)C#Cc1ccc([C@@H]2[C@H](CO)N3C(=O)CN(S(=O)(=O)c4ccccc4)C[C@@H]23)cc1	-3.3	2.8
O=C(NC[C@@H]1CC[C@H]2NC[C@H]2O1)C1CCCC1	12.7	6.7
O=C(C1CCCC1)N1CC2(C1)[C@@H](c1ccccc1)[C@@H](CO)N2Cc1nccs1	0.0	7.4
O=S(=O)(N[C@H]1CC[C@@H](CCn2cc(-c3ccccc3F)nn2)O[C@H]1CO)c1ccc(F)cc1	14.7	15.9
C[C@@H]1CN([C@@H](C)CO)C(=O)c2cccc(NC(=O)c3nc4ccccc4s3)c2O[C@@H]1CN(C)S(=O)(=O)c1ccc(Cl)cc1	?	·
CN(C)CC(=O)Nc1ccc2c(c1)[C@@H]1C[C@@H](CC(=O)NCCN3CCCCC3)O[C@H](CO)[C@@H]1O2	-1.1	-0.7
COc1ccc(C#Cc2ccc3c(c2)[C@H]2[C@H](CCN2S(=O)(=O)c2ccccc2C)[C@H](CO)N3C)cc1	6.1	0.8
COCC#Cc1cnc2c(c1)C(=O)N([C@H](C)CO)C[C@H](C)[C@@H](CN(C)C(=O)CCN1CCCCC1)O2	1.9	-6.9
C[C@H]1CN([C@@H](C)CO)S(=O)(=O)c2ccc(C#CC3CC3)cc2O[C@@H]1CN(C)C(=O)C1CCC1	-5.6	-3.7
CO[C@H]1CN(C)C(=O)c2cc(NC(=O)NC(C)C)ccc2OC[C@@H](C)N(C)C[C@H]1C	20.0	12.0
O=C(C[C@@H]1CC[C@@H]2[C@H](COC[C@@H](O)CN2C(=O)Nc2cc(Cl)cc(Cl)c2)O1)NCC1CCCCC1	?	·
O=C(C1CCCC1)N1CC(=O)N2[C@@H](CO)[C@@H](c3ccc(C#Cc4cccc(F)c4)cc3)[C@@H]2C1	?	·
C[C@@H]1CN([C@H](C)CO)C(=O)c2cc(-c3cncnc3)cnc2O[C@H]1CN(C)Cc1ccc(F)cc1	10.2	12.8
Cc1ccccc1-c1cnc2c(c1)C(=O)N([C@@H](C)CO)C[C@H](C)[C@@H](CN(C)Cc1ccncc1)O2	-20.3	-6.8
C[C@H](NC(=O)C[C@H]1C[C@H]2c3cc(NC(=O)C4CCC4)ccc3O[C@H]2[C@@H](CO)O1)c1ccccc1	6.5	6.8
Cc1ccccc1S(=O)(=O)N1CC[C@@H]2[C@H]1c1cc(-c3ccc(C#N)cc3)ccc1N(C)[C@H]2CO	-7.8	-4.1
CCCNC(=O)C[C@H]1CC[C@H]2[C@H](COc3ccc(NC(=O)c4ccc(Cl)cc4)cc3C(=O)N2C)O1	-13.5	-9.7
C[C@@H]1CN([C@@H](C)CO)S(=O)(=O)c2ccc(C#Cc3ccccc3F)cc2O[C@H]1CN(C)C(=O)Cc1cccnc1	?	·
CCNC(=O)[C@H]1[C@H](CO)[C@H]2Cn3c(ccc(-c4ccncc4)c3=O)[C@@H]1N2Cc1ccccc1	0.5	2.0
CN(C)CC#Cc1ccc([C@@H]2[C@@H](CO)N3CCCCN(C(=O)Cc4ccccn4)C[C@H]23)cc1	20.2	14.0

Quoted at random: 6 compounds from above
SMILES	Vaccinia stage	Vaccinia stage Venus
C[C@H]1CN([C@@H](C)CO)S(=O)(=O)c2ccc(C#CC3CC3)cc2O[C@@H]1CN(C)C(=O)C1CCC1	-5.6	-3.7
C[C@@H]1CN([C@@H](C)CO)S(=O)(=O)c2ccc(C#Cc3ccccc3F)cc2O[C@H]1CN(C)C(=O)Cc1cccnc1	?	·
Cc1ccccc1S(=O)(=O)N1CC[C@@H]2[C@H]1c1cc(-c3ccc(C#N)cc3)ccc1N(C)[C@H]2CO	-7.8	-4.1
CCCNC(=O)C[C@H]1CC[C@H]2[C@H](COc3ccc(NC(=O)c4ccc(Cl)cc4)cc3C(=O)N2C)O1	-13.5	-9.7
O=C(C[C@@H]1CC[C@@H]2[C@H](COC[C@@H](O)CN2C(=O)Nc2cc(Cl)cc(Cl)c2)O1)NCC1CCCCC1	?	·
C[C@@H]1CN([C@H](C)CO)C(=O)c2cc(-c3cncnc3)cnc2O[C@H]1CN(C)Cc1ccc(F)cc1	10.2	12.8

Following part:
SMILES	Vaccinia stage	Vaccinia stage Venus
C[C@H]1CN([C@@H](C)CO)C(=O)Cc2cc(NC(=O)c3ccncc3)ccc2O[C@@H]1CN(C)Cc1ccc2c(c1)OCO2	-1.6	-5.3
C/C=C/c1ccc([C@H]2[C@@H](CO)N(C(C)=O)C23CN(C(=O)c2ccccc2)C3)cc1	-20.6	-12.7
C[C@@H]1CCCCO[C@@H](CN(C)C(=O)Cc2ccccc2)[C@@H](C)CN([C@@H](C)CO)C(=O)c2cc(N(C)C)ccc2O1	-2.7	-1.0
C[C@@H]1CCCCO[C@@H](CN(C)CC2CCCCC2)[C@@H](C)CN([C@H](C)CO)C(=O)c2cc(NC(=O)CCCCCC(=O)Nc3ccccc3N)ccc2O1	14.9	10.3
C[C@H]1CN([C@@H](C)CO)C(=O)c2cccc(NS(=O)(=O)c3ccc(F)cc3)c2O[C@H]1CN(C)Cc1ccncc1	3.6	3.6
C[C@H](CO)N1C[C@H](C)[C@H](CN(C)C(=O)C2CC2)Oc2ncc(C#CCc3ccccc3)cc2C1=O	5.3	1.5
Cc1noc(C)c1NC(=O)N(C)C[C@@H]1Oc2ccc(NC(=O)CCN3CCOCC3)cc2CC(=O)N([C@H](C)CO)C[C@H]1C	-4.8	9.1
CC(C)NC(=O)N(C)C[C@H]1Oc2ncc(C#CCC3CCCC3)cc2C(=O)N([C@@H](C)CO)C[C@@H]1C	-2.3	-4.7
C[C@H](CO)N1C[C@H](C)[C@H](CN(C)C(=O)NC2CCCCC2)Oc2ccc(NS(=O)(=O)c3cn(C)cn3)cc2C1=O	1.2	0.0
C[C@@H]1CCCCO[C@H](CN(C)S(=O)(=O)c2cccs2)[C@H](C)CN([C@H](C)CO)C(=O)c2cc(NC(=O)Nc3ccccc3)ccc2O1	-5.2	-1.2
CC(C)C#Cc1cnc2c(c1)C(=O)N([C@@H](C)CO)C[C@H](C)[C@@H](CN(C)C(=O)Cc1ccncc1)O2	-10.2	-1.4
CC(C)NC(=O)Nc1ccc2c(c1)C(=O)N([C@H](C)CO)C[C@@H](C)[C@@H](CN(C)C(=O)c1ccccc1)OCCCC[C@H](C)O2	5.8	1.4
CO[C@@H]1CN(C)C(=O)c2cc(NC(=O)Nc3cccc(F)c3)ccc2OC[C@@H](C)N(C)C[C@@H]1C	-31.5	-28.2
Cc1noc(C)c1NC(=O)Nc1ccc2c(c1)C(=O)N([C@@H](C)CO)C[C@@H](C)[C@H](CN(C)S(=O)(=O)c1ccccc1)OCCCC[C@H](C)O2	20.6	2.8
C[C@H]1CN([C@@H](C)CO)C(=O)c2cc(-c3cncnc3)cnc2O[C@H]1CN(C)C(=O)Cc1ccccc1	-4.5	2.2
C[C@@H]1CN([C@@H](C)CO)C(=O)c2cccc(NC(=O)c3ccc(-c4nccs4)cc3)c2O[C@H]1CN(C)C(=O)NC1CCCCC1	1.2	-5.1
C[C@@H]1CCCCO[C@@H](CN(C)C(=O)Nc2cccc3ccccc23)[C@@H](C)CN([C@@H](C)CO)C(=O)c2cc(NC(=O)C3CCCCC3)ccc2O1	-15.5	-10.8
Cc1noc(C)c1S(=O)(=O)Nc1cccc2c1O[C@H](CN(C)Cc1ccc3c(c1)OCO3)[C@H](C)CN([C@@H](C)CO)C2=O	2.8	5.6
O=C(C1CCC1)N1CC2(C1)[C@H](c1ccccc1)[C@@H](CO)N2CC1CCCC1	10.0	10.5

Screens deposited in PubChem BioAssay by Broad Institute.
